Compound activity (PubChem)
HIV Env fusion – HIV envelope-mediated fusion inhibition | inhibition, % at 12.3 µM | AID 651610 | HeLa-JRFL Env/CEM21 cell fusion, luciferase | 1.1% of 360,000 active;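 active = mean replicate inhibition score of at least 50 and every replicate individually at or above 50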;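 note: 0% = plate neutral controls and 100% = maraviroc near 300 nM; one replicate is shown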
UUG fidelity – alters start codon recognition fidelity in yeast. activity score, % at 18.7 µM. S. cerevisiae UUG-firefly luciferase reporter, luminescence/redox ratio. 0.13% of 350,000 active;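 active = replicate mean at a twofold rise or more, about +100% in these data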;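 note: firefly luciferase made from a UUG start codon reports start codon fidelity; reporter light over untreated wells divided by growth signal over untreated wells; some hits fall short of that in this replicate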
Starred values were filed as active, the others as inactive; [ ] = remark or other dose.

Start of the data: the first 3 records (preview)
SMILES	HIV Env fusion	UUG fidelity
C[C@H]1CN([C@@H](C)CO)C(=O)c2cccc(NS(=O)(=O)c3ccccc3)c2O[C@H]1CN(C)C(=O)Nc1cccc2ccccc12	-33[16.7 µM]	3
C[C@@H]1CN([C@H](C)CO)C(=O)Cc2cc(NS(C)(=O)=O)ccc2O[C@@H]1CN(C)C(=O)Nc1ccc2c(c1)OCO2	2[16.7 µM]	-23
COC(=O)N(C)C[C@H]1OCc2cn(nn2)CCCC(=O)N([C@H](C)CO)C[C@@H]1C	3	7

The whole of this part (from the top)
SMILES	HIV Env fusion	UUG fidelity
C[C@H]1CN([C@@H](C)CO)C(=O)c2cccc(NS(=O)(=O)c3ccccc3)c2O[C@H]1CN(C)C(=O)Nc1cccc2ccccc12	-33[16.7 µM]	3
C[C@@H]1CN([C@H](C)CO)C(=O)Cc2cc(NS(C)(=O)=O)ccc2O[C@@H]1CN(C)C(=O)Nc1ccc2c(c1)OCO2	2[16.7 µM]	-23
COC(=O)N(C)C[C@H]1OCc2cn(nn2)CCCC(=O)N([C@H](C)CO)C[C@@H]1C	3	7
COc1ccc(S(=O)(=O)Nc2ccc3c(c2)OC[C@@H](C)N(C(=O)NC(C)C)C[C@@H](C)[C@H](OC)CN(C)C3=O)cc1	6[16.7 µM]	4
CCC(=O)N(C)C[C@H]1Oc2cc(C#CC3(O)CCCC3)ccc2S(=O)(=O)N([C@H](C)CO)C[C@H]1C	-24[16.7 µM]	8
COCC(=O)Nc1ccc2c(c1)C(=O)N(C)[C@H]1CC[C@@H](CC(=O)NCC3CC3)O[C@@H]1CO2	11[16.7 µM]	3
C[C@@H]1CN([C@@H](C)CO)C(=O)Cc2cc(NC(=O)Nc3ccc(C(F)(F)F)cc3)ccc2O[C@@H]1CN(C)C(=O)Nc1ccc(C(F)(F)F)cc1	-2[16.7 µM]	-14
COc1ccc(-c2cnc3c(c2)C(=O)N([C@H](C)CO)C[C@@H](C)[C@H](CN(C)Cc2cccnc2)O3)cc1	7[16.7 µM]	16
C[C@H]1CN([C@@H](C)CO)C(=O)c2cc(C#Cc3ccccc3F)cnc2O[C@@H]1CN(C)S(=O)(=O)c1ccccc1	19[16.7 µM]	3
CCCC#Cc1ccc2c(c1)O[C@@H](CN(C)C(=O)CC1CC1)[C@H](C)CN([C@H](C)CO)S2(=O)=O	-2[16.7 µM]	-2
O=C(NCC[C@H]1CC[C@H](NC(=O)C2CC2)[C@H](CO)O1)c1cc(Cl)cc(Cl)c1	5[16.7 µM]	5
COc1cccc(S(=O)(=O)N(C)C[C@H]2Oc3cc(C#CCN(C)C)ccc3S(=O)(=O)N([C@H](C)CO)C[C@H]2C)c1	-11[16.7 µM]	2
COc1cccc(-c2ccc3c(c2)O[C@H](CN(C)C(C)=O)[C@H](C)CN([C@@H](C)CO)S3(=O)=O)c1	-9[16.7 µM]	-1
COCCNC(=O)C[C@H]1CC[C@@H](NS(=O)(=O)c2ccc(C)cc2)[C@H](CO)O1	8[16.7 µM]	-20
C[C@@H]1CCCCO[C@H](CN(C)S(=O)(=O)c2ccc(F)cc2)[C@H](C)CN([C@@H](C)CO)C(=O)c2cc(NC(=O)Nc3ccc4c(c3)OCO4)ccc2O1	3[16.7 µM]	-3
C[C@@H]1CN([C@H](C)CO)C(=O)c2cc(NC(=O)Cc3ccccc3)ccc2O[C@H]1CN(C)C(=O)Nc1ccc2c(c1)OCO2	11[16.7 µM]	37
C[C@@H]1CN([C@@H](C)CO)C(=O)c2cc(NC(=O)C3CCCCC3)ccc2O[C@@H](C)CCCCO[C@@H]1CN(C)Cc1ccccc1	-8[16.7 µM]	6
CCC(=O)N(C)C[C@@H]1Oc2ncc(C3=CCCC3)cc2C(=O)N([C@H](C)CO)C[C@@H]1C	0[16.7 µM]	2
COc1ccc(NC(=O)Nc2ccc3c(c2)C(=O)N([C@H](C)CO)C[C@@H](C)[C@@H](CN(C)C(=O)Nc2ccc(OC)cc2)O3)cc1	6[16.7 µM]	11
CC(C)NC(=O)Nc1ccc2c(c1)CC(=O)N([C@@H](C)CO)C[C@@H](C)[C@@H](CN(C)C(=O)Nc1ccccc1)O2	10[16.7 µM]	5
Cc1noc(C)c1NC(=O)Nc1cccc2c1O[C@@H](CN(C)Cc1ccc(Oc3ccccc3)cc1)[C@@H](C)CN([C@@H](C)CO)C2=O	-6[16.7 µM]	4
CC(C)CC#Cc1ccc2c(c1)O[C@@H](CN(C)C(=O)c1ccncc1)[C@H](C)CN([C@H](C)CO)S2(=O)=O	0[16.7 µM]	-19
C[C@@H]1CN([C@@H](C)CO)C(=O)c2cccc(NC(=O)c3ccc(-c4nccs4)cc3)c2O[C@@H]1CN(C)C(=O)Nc1ccccc1	-167[16.7 µM]	0
C[C@@H]1CN([C@H](C)CO)C(=O)Cc2cc(N(C)C)ccc2O[C@@H]1CN(C)Cc1ccc(Oc2ccccc2)cc1	1[16.7 µM]	-7

One compound at a time (already shown).
Record of `C[C@@H]1CN([C@H](C)CO)C(=O)Cc2cc(N(C)C)ccc2O[C@@H]1CN(C)Cc1ccc(Oc2ccccc2)cc1` = HIV Env fusion: 1[16.7 µM]; UUG fidelity: -7
Record of `C[C@@H]1CCCCO[C@H](CN(C)S(=O)(=O)c2ccc(F)cc2)[C@H](C)CN([C@@H](C)CO)C(=O)c2cc(NC(=O)Nc3ccc4c(c3)OCO4)ccc2O1` = HIV Env fusion: 3[16.7 µM]; UUG fidelity: -3

New compounds follow
SMILES	HIV Env fusion	UUG fidelity
C[C@@H]1CN([C@@H](C)CO)C(=O)Cc2cc(NS(=O)(=O)c3ccc(Cl)cc3)ccc2O[C@H]1CN(C)Cc1ccc(C(F)(F)F)cc1	77*[16.7 µM]	11
C[C@H](CO)N1C[C@H](C)[C@H](CN(C)C(=O)NC2CCCCC2)Oc2c(NC(=O)Nc3cccc4ccccc34)cccc2C1=O	5[16.7 µM]	-13
C[C@@H](NC(=O)C[C@H]1C=C[C@H](NC(=O)CN2CCOCC2)[C@@H](CO)O1)c1ccccc1	15[16.7 µM]	-2
C[C@@H]1CCCCO[C@@H](CN(C)C)[C@H](C)CN([C@H](C)CO)C(=O)c2cc(NS(=O)(=O)c3ccccc3)ccc2O1	-13[16.7 µM]	4
C/C=C/c1ccc2c(c1)O[C@H](CN(C)Cc1ccccc1F)[C@@H](C)CN([C@H](C)CO)S2(=O)=O	40[16.7 µM]	-2
O=C(C[C@H]1C=C[C@H](NC(=O)Nc2ccc(F)cc2)[C@@H](CO)O1)NCCN1CCCC1	15[16.7 µM]	5
C[C@@H]1CN([C@@H](C)CO)C(=O)c2cc(C#CC3(O)CCCC3)cnc2O[C@H]1CN(C)S(=O)(=O)c1ccccc1	4[16.7 µM]	-5
C[C@@H]1CN([C@@H](C)CO)C(=O)c2cc(NS(=O)(=O)c3ccc(F)cc3)ccc2O[C@@H]1CN(C)C(=O)Nc1cccc2ccccc12	-46[16.7 µM]	-20
C[C@@H]1CCCCO[C@@H](CN(C)C(=O)Nc2ccc(F)cc2)[C@H](C)CN([C@@H](C)CO)C(=O)c2cc(NC(=O)Cc3ccccc3)ccc2O1	-41[16.7 µM]	-16
O=C(N[C@@H]1CC[C@H](CCn2cc(-c3ccccn3)nn2)O[C@@H]1CO)c1ccccc1	12[16.7 µM]	-9
COc1cccc(NC(=O)N[C@H]2C=C[C@@H](CC(=O)NCc3ccncn3)O[C@@H]2CO)c1	-14[16.7 µM]	2
COc1cccc(C(=O)Nc2ccc3c(c2)OC[C@H](C)N(C)C[C@@H](C)[C@@H](OC)CN(C)C3=O)c1	-2[16.7 µM]	18
O=C(C[C@@H]1C=C[C@@H](NC(=O)c2ccc(F)cc2)[C@H](CO)O1)NCCc1ccccc1	-25[16.7 µM]	-16
COc1ccc(S(=O)(=O)Nc2ccc3c(c2)C(=O)N([C@@H](C)CO)C[C@@H](C)[C@H](CN(C)C(=O)Nc2cccc4ccccc24)OCCCC[C@@H](C)O3)cc1	-4[16.7 µM]	7
O=C(C[C@@H]1C=C[C@@H](NS(=O)(=O)c2ccc(F)cc2)[C@H](CO)O1)N1CCc2ccccc2C1	19[16.7 µM]	6
C[C@@H]1CCCCO[C@@H](CN(C)C(=O)c2ccncc2)[C@H](C)CN([C@@H](C)CO)C(=O)c2cc(NC(=O)C3CCCCC3)ccc2O1	-11[16.7 µM]	11
COCC(=O)N(C)C[C@@H]1Oc2cc(C#C[C@H](C)O)ccc2S(=O)(=O)N([C@@H](C)CO)C[C@@H]1C	-2[16.7 µM]	-8
C[C@H]1CCCCO[C@@H](CN(C)C(=O)Nc2cccc3ccccc23)[C@@H](C)CN([C@@H](C)CO)C(=O)c2cc(NS(=O)(=O)c3ccc(F)cc3)ccc2O1	27[16.7 µM]	-7
Cc1ccc(-c2ccc3c(c2)O[C@H](CN(C)Cc2cccnc2)[C@H](C)CN([C@@H](C)CO)S3(=O)=O)cc1	0[16.7 µM]	-1
C[C@@H]1CN([C@@H](C)CO)C(=O)c2cc(NS(=O)(=O)c3ccc(Cl)cc3)ccc2O[C@@H](C)CCCCO[C@H]1CN(C)C(=O)C1CCCCC1	-83[16.7 µM]	-5
C[C@H](CO)N1C[C@H](C)[C@@H](CN(C)S(=O)(=O)c2ccc(F)cc2)OCCCC[C@H](C)Oc2ccc(NS(=O)(=O)c3ccccc3)cc2C1=O	-7[16.7 µM]	1
C[C@@H]1CN([C@H](C)CO)S(=O)(=O)c2ccc(-c3cccc(F)c3)cc2O[C@@H]1CN(C)S(=O)(=O)c1ccccc1	107*[16.7 µM]	-6
C[C@H](CO)N1C[C@H](C)[C@@H](CN(C)C(=O)Nc2ccc(C(F)(F)F)cc2)Oc2ccc(NC(=O)NC3CCCCC3)cc2CC1=O	-14[16.7 µM]	7
C[C@H](NC(=O)C[C@@H]1CC[C@@H](NC(=O)C2CCOCC2)[C@H](CO)O1)c1ccccc1	12[16.7 µM]	-16
COc1cccc(-c2cnc3c(c2)C(=O)N([C@H](C)CO)C[C@H](C)[C@@H](CN(C)Cc2ccncc2)O3)c1	0[16.7 µM]	-5
Cc1ccc(-c2ccc3c(c2)O[C@H](CN(C)C(=O)NC(C)C)[C@@H](C)CN([C@H](C)CO)S3(=O)=O)cc1	-25[16.7 µM]	39
COc1cccc(NC(=O)N(C)C[C@H]2Oc3ncc(C#Cc4ccc(F)cc4)cc3C(=O)N([C@H](C)CO)C[C@@H]2C)c1	14[16.7 µM]	31
COc1ccc(S(=O)(=O)Nc2ccc3c(c2)C(=O)N([C@H](C)CO)C[C@@H](C)[C@@H](CN(C)Cc2ccc(C(=O)O)cc2)OCCCC[C@H](C)O3)cc1	-2[16.7 µM]	31
COc1ccc(S(=O)(=O)Nc2ccc3c(c2)C(=O)N(C)C[C@@H](OC)[C@@H](C)CN[C@H](C)CO3)cc1	3[16.7 µM]	0
COCC#Cc1cnc2c(c1)C(=O)N([C@@H](C)CO)C[C@H](C)[C@H](CN(C)C(=O)C1CCC1)O2	-6[16.7 µM]	17
C[C@@H](O)C#Cc1ccc2c(c1)O[C@@H](CN(C)C(=O)Cc1ccccn1)[C@@H](C)CN([C@@H](C)CO)S2(=O)=O	6[16.7 µM]	-2
CCCC#Cc1ccc2c(c1)O[C@@H](CN(C)S(=O)(=O)c1cccc(F)c1)[C@@H](C)CN([C@H](C)CO)S2(=O)=O	64*[16.7 µM]	9
CO[C@@H]1CN(C)C(=O)c2cc(NS(=O)(=O)c3cn(C)cn3)ccc2OC[C@@H](C)NC[C@H]1C	14[16.7 µM]	-4
COC(=O)C[C@H]1CC[C@@H]2[C@H](COC[C@H](O)CN2C(=O)Nc2cccc(F)c2)O1	-9[16.7 µM]	-14
COc1ccc(S(=O)(=O)Nc2ccc3c(c2)C(=O)N([C@H](C)CO)C[C@H](C)[C@H](CN(C)S(=O)(=O)c2ccc(F)cc2)OCCCC[C@H](C)O3)cc1	-122[16.7 µM]	8
COc1ccc(NC(=O)N(C)C[C@H]2Oc3ccc(NS(=O)(=O)c4ccc(Cl)cc4)cc3C(=O)N([C@@H](C)CO)C[C@H]2C)cc1	16[16.7 µM]	8
Cc1nc(S(=O)(=O)N[C@H]2CCN(Cc3ccc(OCCO)cc3)C2)cn1C	-18[16.7 µM]	-8
CCC(=O)N(C)C[C@H]1Oc2ncc(-c3ccccc3F)cc2C(=O)N([C@H](C)CO)C[C@@H]1C	-3[16.7 µM]	-7
COc1ccc(NC(=O)N(C)C[C@@H]2Oc3ccc(NC(=O)Nc4c(C)noc4C)cc3C(=O)N([C@@H](C)CO)C[C@@H]2C)cc1	15[16.7 µM]	-27
C[C@H](CO)N1C[C@H](C)[C@@H](CN(C)Cc2ccc(C(=O)O)cc2)Oc2ncc(-c3ccc(F)cc3)cc2C1=O	-12[16.7 µM]	4
O=C(Nc1ccccc1F)N[C@@H]1CC[C@H](CCNC(=O)C2CCC2)O[C@@H]1CO	13[16.7 µM]	-9
COCC(=O)N(C)C[C@@H]1Oc2ncc(C#C[C@@H](C)O)cc2C(=O)N([C@H](C)CO)C[C@@H]1C	-9[16.7 µM]	-12
C[C@H](CO)N1C[C@H](C)[C@H](CN(C)S(=O)(=O)c2cccs2)Oc2c(NC(=O)Nc3ccc(F)cc3)cccc2C1=O	-15[16.7 µM]	5
C[C@@H]1CN([C@H](C)CO)C(=O)c2cccc(NS(=O)(=O)c3cn(C)cn3)c2O[C@H]1CN(C)CC1CC1	3[16.7 µM]	-1
Cc1noc(C)c1S(=O)(=O)Nc1ccc2c(c1)C(=O)N([C@H](C)CO)C[C@H](C)[C@@H](CN(C)C(=O)c1ccncc1)OCCCC[C@@H](C)O2	-13[16.7 µM]	1

Not all compounds are listed; rates above refer to the full screens.
